# Screening results deposited in PubChem by National Center for Advancing Translational Sciences (NCATS).
# RE007 growth inh – qHTS Assay for Inhibitors of the HIV-1 protein Vpr; Potency, µM (series often up to 92.2 µM), inactives show at the highest dose activity change, negative = less growth; S. pombe RE007 Vpr strain, BacTiter-Glo ATP luminescence, 24 h; control for the full effect not named in the record; actives 0.21% (n = 360,000); active = well fitted falling curve with a large enough effect; inconclusive = small, poorly fitted or top-dose-only effect; inactive = no such curve, though single readings can be large or run the other way;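 further: on the % scale 0 is the no-effect control and ±100 the full control effect; nearly all actives have a fitted effect of over 50% in size; the assay follows cell death caused by Vpr and the record does not say whether a fall means rescue or toxicity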
#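 Fission yeast RE007 carrying one integrated HIV-1 vpr copy, seeded at OD 0.01 in PMG+AL medium with 23 nL pinned compound. Grown 24 h at 30 degrees; viability read by BacTiter-Glo luminescence after 5 min.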
# SARS PLP yeast – qHTS of Yeast-based Assay for SARS-CoV PLP; S. cerevisiae expressing SARS-CoV PLpro, growth rescue; control for the full effect not named in the record; Potency, µM (titrated, usually from 32.9 µM), without a hit: at the top dose activity, positive = growth rescue; actives 0.19% (n = 330,000); further: 0% is about no effect; nearly all actives have a fitted effect of over 55% in size; growth read by luminescence after 48 h
# StopGo reporter – High Throughput Screening for Foot and Mouth Disease Virus Antivirals; human cells with a luciferase reporter of 2A StopGo recoding; control for the full effect not named in the record; Potency, µM (doses to about 57.9 µM), for inactives: at the top dose signal change, negative = less light; actives 1.2% (n = 410,000); active = well fitted falling curve with a large enough effect; inconclusive = small, poorly fitted or top-dose-only effect; inactive = no such curve, though single readings can be large or run the other way; tested in HEK293T cells; further: on the % scale 0 is the no-effect control and ±100 the full control effect; nearly all actives have a fitted effect of over 45% in size; luciferase light after 4 h
# LASV entry inh – qHTS for Inhibitors of binding or entry into cells for Lassa Virus | Lassa virus pseudotype entry inhibition, cell reporter; control for the full effect not named in the record | Potency, µM (titrated, usually from 37.9 µM), for the others: top-dose activity change, negative = inhibition, actives largely listed as inhibitors | actives 1.2% (n = 300,000); active means well fitted inhibition curve with a large enough effect; inconclusive means small, poorly fitted or top-dose-only effect, or effect the other way; inactive means flat fitted curve, though single readings scatter; tested in HEK293 cells; further: on the % scale 0 is the no-effect control and ±100 the full control effect; nearly all actives have a fitted effect of over 50% in size; luciferase read-out
# Marburg entry inh – qHTS for inhibitors of binding or entry into cells for Marburg Virus | AID 540276, 2011 | Potency, µM (doses to about 37.8 µM), without a hit: at the highest dose activity change, negative = inhibition, most hits filed as inhibitors | Marburg virus pseudotyped entry inhibition, cell reporter; control for the full effect not named in the record; about a third of the inactives were read at about 46 µM | actives 1.8% (n = 300,000); active = well fitted inhibition curve with a large enough effect; inconclusive = small, poorly fitted or top-dose-only effect, or effect the other way; inactive = flat fitted curve, though single readings scatter; tested in HEK293 cells; about a fifth of its hits are not listed in these tables; further: on the % scale 0 is the no-effect control and ±100 the full control effect; luciferase read-out
# Cruzain Triton – qHTS Assay for Promiscuous and Specific Inhibitors of Cruzain (with detergent); Potency, µM, for inactives: max response, negative = inhibition, hits mostly inhibitors; AID 1478, 2009; purified cruzain, Z-FR-AMC fluorescence, 0.01% Triton; actives 0.43% (n = 200,000); Cruzipain (Trypanosoma cruzi), P25779; active means well fitted curve in the direction sought with a large enough effect; inconclusive means small, poorly fitted or top-dose-only effect, or another doubt; inactive means no such curve, though single readings can be large; an effect the other way counts as inactive or inconclusive;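 further: plate controls were neutral wells for no effect and buffer without enzyme for full effect; nearly all actives have a fitted effect of over 40% in size; top concentration of the series not given in the record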
# Target sequence (P25779 123-467 limits assumed): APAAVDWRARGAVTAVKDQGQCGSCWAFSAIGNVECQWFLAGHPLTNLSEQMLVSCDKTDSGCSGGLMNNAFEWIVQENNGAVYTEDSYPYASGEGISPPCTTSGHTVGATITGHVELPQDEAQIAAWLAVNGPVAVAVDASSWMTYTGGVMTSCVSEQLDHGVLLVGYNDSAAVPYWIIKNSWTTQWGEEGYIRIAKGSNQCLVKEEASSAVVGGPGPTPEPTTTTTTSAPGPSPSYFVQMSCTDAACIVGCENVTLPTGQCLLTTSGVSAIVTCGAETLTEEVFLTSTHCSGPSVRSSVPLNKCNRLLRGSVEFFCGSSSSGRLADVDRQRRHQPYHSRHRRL
#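 Detergent-containing arm of a paired screen for aggregation-based inhibition: 0.01% Triton X-100 present. Cruzain at 1.5 nM cleaved 2 uM Z-FR-AMC at pH 5.5 with 5 mM DTT; AMC fluorescence gain over 60 s measured activity.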
# Cruzain inh noDet – qHTS Assay for Promiscuous and Specific Inhibitors of Cruzain (without detergent) | Cruzipain (Trypanosoma cruzi), P25779 | purified cruzain, Z-FR-AMC fluorescence, no detergent | Potency, µM, for the others: max response, negative = inhibition, hits mostly inhibitors | actives 2.3% (n = 200,000); active means well fitted curve in the direction sought with a large enough effect; inconclusive means small, poorly fitted or top-dose-only effect, or another doubt; inactive means no such curve, though single readings can be large; an effect the other way counts as inactive or inconclusive;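 further: plate controls were enzyme without inhibitor for no effect and buffer without enzyme for full effect; nearly all actives have a fitted effect of over 40% in size; top concentration of the series not given in the record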
#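 Detergent-free condition (0.00005% Triton X-100) in acetate buffer pH 5.5 with DTT. 1.5 nM enzyme and compound were pre-mixed 15 min, then 2 uM Z-FR-AMC substrate added; reaction progress from fluorescence change between first and third reads (60 s).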
# NS1 function inh – qHTS Assay for Inhibitors of Influenza NS1 Protein Function; S. cerevisiae slowed by influenza A NS1, growth recovery by OD600; Potency, µM (top dose mostly 46.1 µM), for the others: at the highest dose activity, positive = more growth; actives 0.4% (n = 270,000); further: actives are rising curves; nearly all actives have a fitted effect of over 50% in size
#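 A cell-based growth assay was used: compounds that relieve NS1-induced slow growth of budding yeast raise OD600. Assay medium was yeast nitrogen base with ammonium sulphate and -URA supplement, pH 6.0, with 2% galactose.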
# The depositor's hits bear a star; ? = inconclusive; . = not tested or not shown; & = joins results of further samples; [ ] = remark or other dose. Unless noted, the call rests on the fitted dose curve; in most records, active means well fitted rising curve with a large enough effect; inconclusive means small, poorly fitted or top-dose-only effect; inactive means no such curve, though single readings can be large or run the other way. Potency means the concentration at half of the fitted maximal effect. The order is random. Share with any hit: about 4.8%.
Compound	RE007 growth inh	SARS PLP yeast	StopGo reporter	LASV entry inh	Marburg entry inh	Cruzain Triton	Cruzain inh noDet	NS1 function inh
CS(=O)(=O)N1CCc2cc(C(=O)Nc3ccc(Cl)cc3)ccc21	6.0%	-0.4%	-11.3%	-24.4%[46.1 µM]	?	.	.	-3.8%
O=C(Nc1cc2c3c(c1)CC(=O)N3CCC2)c1ccc(Br)cc1	4.1%	0.8%	8.6%	-3.5%	-8.7%	.	.	.
CCCCN(CC)C(=O)CN1C(=O)c2ccccc2C1=O	2.7%	10.1%	-9.3%	-1.2%	-6.3%	1.2%	5.8%	3.5%
CCN1CCN(CCNC(=O)CCCn2nc(C)c3c(C)n(-c4ccc(C)cc4)nc3c2=O)CC1	?	-11.6%	-1.5%	21.0%[46.1 µM]	?	.	.	4.0%
CC(=O)c1sc(Nc2nc3cc4c(cc3s2)OCO4)nc1C	-10.7%	0.0%	15.3%	.	?	.	.	9.6%
CCOC(=O)CN(C(=O)COC(=O)C1(c2ccccc2)CC1)c1ccc(F)cc1	0.1%	0.5%	-14.7%	-25.5%	-28.3%	.	.	.
COc1ccc(CN(C)C(=O)CNC(=O)c2ccc3ccccc3c2)c(OC)c1	4.2%	-26.3%	3.8%	10.5%	?	.	.	-16.0%
COc1ccc2[nH]c(C(=O)NCCCn3ccnc3)cc2c1	-11.6%	0.3%	-6.0%	?	-42.9%	.	.	0.3%
COc1ccc(OC)c(-c2csc(NC(=O)C3COc4ccccc4O3)n2)c1 (stereo not given)	0.6%	-3.4%	-26.0%	?	0.8%	.	.	.
CN(Cc1nc2ccccc2n1C)S(=O)(=O)c1ccc(Cl)cc1	-11.0%	2.6%	-22.5%	6.1%	-11.8%	6.1%	6.5%	-7.6%
CCCCNC(=O)CC1N=C2c3ccccc3N=C(SCC(=O)Nc3ccccc3C)N2C1=O (stereo not given)	0.7%	1.4%	5.2%	13.2%	1.7%&-0.6%	-5.6%	-9.1%	13.9%
CCOC(=O)c1ccc(NC(=O)CSc2nc(-c3cccs3)cc(C(F)(F)F)c2C#N)cc1	.	.	-9.2%	-2.5%[46.1 µM]	6.3%[46.1 µM]	-2.7%	6.1%	.
Cc1ccnc(NS(=O)(=O)c2ccc(N3C(=O)c4ccccc4C3=O)cc2)n1	0.4%	21.0%	26.1%	-0.5%	?	0.7%	-17.0%	8.4%
Cc1cccc(OC(=O)c2cccnc2)c1C	-14.5%	-0.2%	-3.2%	.	.	.	.	-8.7%
CC(=O)NC(CC(=O)OCC(=O)Nc1cc(S(=O)(=O)N2CCCCC2)ccc1C)c1ccccc1 (stereo not given)	-2.4%	2.1%	-18.5%	?	?	.	.	.
OC(CN1CCC(Cc2ccccc2)CC1)c1ccccc1 (stereo not given)	9.6%	-0.5%	-10.0%	.	.	.	.	10.7%
COc1cc(/C=N/Nc2cccc(C)c2)ccc1OC(=O)c1ccco1	108.9%	-20.5%	69.7%[activator]	-1.4%	0.1%	-2.4%	15.8µM*	-4.3%
CCCSc1nc2c(cnn2-c2ccccc2)c(=O)[nH]1	2.5%	-9.8%	-18.7%	.	.	4.7%	0.4%	2.3%
O=[N+]([O-])c1cc(-c2nc(-c3ccncc3)no2)ccc1Cl	-29.3%	-33.9%	-21.0%	1.1%	23.4%	-4.2%	-13.1%	-14.6%
Cc1cc(OCC(=O)N2CCC(C(N)=O)CC2)c2c3c(c(=O)oc2c1)CCCC3	-5.3%	7.3%	-21.7%	.	.	.	.	4.4%
O=c1cc(CSc2nnc(COc3ccccc3)n2-c2ccccc2)c2ccccc2[nH]1	-3.8%	11.5%	-13.3%	-17.6%	?	-5.2%	-8.0%	-7.8%
Cc1sc2ncn(CC(=O)NCc3ccccc3)c(=O)c2c1C	18.5%	-0.7%	-12.8%	.	.	.	.	1.3%
CCN(CC)CCNC(=O)CCn1c(=S)[nH]c2cc3c(cc2c1=O)OCO3	-0.5%	-1.1%	?	6.6%	-16.1%	-9.0%	?	?
COc1ccc(-n2c(SC)nc(O)cc2=O)cc1	-7.9%	2.2%	-6.7%	-6.4%	-3.8%	-3.7%	-4.4%	19.9%
Cc1sc2c(c1C)c(=O)nc1scc(CC(=O)O)n12	4.5%	3.6%	-5.9%	8.7%	?	2.8%	0.7%	2.5%
COc1ccc(CNC(=O)c2cc(-c3cc(C)ccc3O)n[nH]2)cc1	0.4%	3.6%	75.6%[activator]	?	1.4%[46.1 µM]	.	.	1.4%
CN(C)C(CNC(=O)CNC(=O)c1ccc(Br)cc1)c1ccccc1 (stereo not given)	23.3%	-1.2%	21.7%	-8.0%	?	.	.	.
COc1cc(C)c(S(=O)(=O)n2nnc3ccccc32)cc1C	-12.2%	1.6%	9.0%	4.2%	4.6%	1.0%	-7.2%	2.8%
COc1ccccc1CN(C)C(=O)c1sccc1-c1ccccc1	1.9%	-14.7%	25.6%	-21.7%	-20.0%	.	.	-22.4%
CCOc1cc(C)nc(N2CCN(C3CCCCC3)CC2)n1	3.7%	1.6%	.	3.8%	?	3.0%	-15.1%	-4.3%
Cc1cccn2c(=O)c3cc(C#N)c(=NC(=O)c4ccccc4)n(Cc4ccco4)c3nc12	-7.4%&-4.0%	.	-29.2%&-23.8%	?	?	.	.	.
O=c1c2[nH]c3ccc(F)cc3c2ncn1CCN1CCN(Cc2ccccc2)CC1	2.6%	-2.3%	?	.	.	-1.4%	0.7%	13.4%
COc1ccc(C(=O)NCCN2C(=O)S/C(=C\c3cccnc3)C2=O)c(OC)c1OC	22.4%	-11.0%	?	0.0%	-14.5%	-5.4%	?	-6.1%
O=C(/C=C/c1ccccc1Cl)Nc1ccc(-c2nnc3n2CCCCC3)cc1	-6.2%	6.4%	-3.0%	14.9%	-29.6%	-0.8%	14.1%	14.6%
Cn1c(CCCOc2ccc(Cl)cc2Cl)n[nH]c1=S	-20.4%	1.4%	32.7%[activator]	13.6%	25.2%	.	.	-2.4%
COCCN(CCOC)S(=O)(=O)c1ccc(C(=O)Nc2sc3c(c2C(N)=O)CCCCC3)cc1	7.2%	11.2%	30.8%[activator]	11.8%	?	-2.3%	?	3.7%
O=C(NNC(=S)NCc1ccc(Cl)cc1)c1ccc(Br)o1	9.9%	0.0%	-3.6%	15.5%	2.8%	.	.	-1.9%
Cc1cc(NC(=O)/C=C/c2ccc(F)cc2)n(-c2nc3ccccc3[nH]2)n1	2.6%	-16.7%	-20.7%	-2.1%	10.2%	-4.5%	2.9%	1.0%
O=C(O)CC1S/C(=N\N=C/c2ccccc2)N(c2ccc(O)cc2)C1=O (stereo not given)	-7.0%	-5.3%	.	-28.6%	27.8%	0.9%	4.4%	-4.2%
CCc1ccc(C2CC(=O)N(c3cccc(C(F)(F)F)c3)C3=C2C(=O)OC3)cc1 (stereo not given)	.	.	-23.8%	2.5%[46.1 µM]	-21.6%[46.1 µM]	-8.0%	-4.7%	.
COc1cccc(OC)c1C(=O)N1CCN(Cc2ccccc2C)CC1	27.5%	-2.2%	-21.5%	-3.4%	14.6%	2.2%	7.4%	-2.5%
COc1ccc(-n2c(O)c(C=NC3CC3)c(=O)[nH]c2=O)cc1	12.9%	4.6%	-21.6%	-1.9%	-2.6%	-1.5%	7.5%	2.1%
CC(=O)Oc1ccccc1C1OC(=O)c2ccccc2N1C(C)=O (stereo not given)	-7.7%	-2.9%	-24.7%	-0.1%	-23.5%	3.3%	-4.0%	4.2%
O=C(Nc1ccc(F)cc1F)NC1CCN(Cc2c(F)cccc2Cl)CC1	-12.8%	0.4%	?	?	?	.	.	-3.9%
CCC(=O)Nc1ccc(NCc2cccs2)cc1	-9.5%	2.1%	22.6%	2.4%	3.7%	.	.	0.0%
COc1ccc(CCCc2nnc(SCC(=O)Nc3cc(C)c(C)cc3Br)o2)cc1	0.2%	4.7%	?	-5.4%	-17.2%&-17.2%	1.7%	2.8%	-29.8%
O=C(c1ccc(-c2ccccc2Cl)o1)N1CCC1	0.9%	2.5%	12.4%	7.6%	11.2%[46.1 µM]	.	.	.
Cc1c([N+](=O)[O-])cc(C(=O)N2CCOCC2)cc1[N+](=O)[O-]	-14.0%	14.6%	-15.1%	5.4%	?	-2.3%	-3.9%	8.8%
c1ccc(CSC2=NCCS2)cc1	3.6%	1.8%	0.0%	3.8%	8.7%[46.1 µM]	.	.	.
CCC(C)[C@H](NC(=O)NCCCOC(C)C)C(=O)OC (stereo not given in full)	2.9%	-0.6%	4.4%	0.8%	7.2%	.	.	2.5%
O=C(CSc1nnc(CNC(=O)c2cccs2)o1)c1ccccc1	3.3%	3.3%	-14.8%	-12.0%	16.1%[46.1 µM]	-2.0%	-15.2%	-0.5%
Cc1ccc2nc3c(cc(C#N)c(=O)n3-c3nccs3)c(=O)n2c1	-2.6%	?	16.6%	-2.9%	3.2%	?	6.0%	0.5%
CC1C(=O)N2CCCc3cc(NS(C)(=O)=O)cc1c32 (stereo not given)	-7.5%	-5.1%	-11.4%	.	.	.	.	3.0%
CC(C)COc1ccc(-c2nn(-c3ccccc3)cc2CO)cc1	?	-11.6%	-8.6%	.	.	.	.	-4.0%
COc1cc(C2C3=C(COC3=O)OC(C)(C)Oc3cc4c(cc32)OCO4)cc(OC)c1OC (stereo not given)	9.7%	.	-6.4%	?	?	.	.	.
Cc1cc(Cl)c(S(=O)(=O)NC2CCCCC2)cc1OCC(=O)Nc1nncs1	4.8%	-1.6%	-8.2%	-30.0%	?	-6.8%	-12.3%	-46.4%
